EPAC1 agonist: activates human EPAC1 exchange factor; O95398; EPAC1 agonist qHTS, biochemical assay; response scale: 100% = response to 6.5 mM cAMP; Potency, µM (highest dose often 154 µM), inactives show top-dose activation, actives largely listed as activators; actives 0.073% (n = 360,000); further: potency means the concentration at half of the fitted maximal effect; nearly all actives have a fitted effect of over 60% in size
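Nucleotide exchange by EPAC1 (100 nM) on Rap1B–BODIPY-GDP (250 nM) in the presence of 50 uM GDP is tracked fluorescently at 480/540 nm over 30 min. Signals are normalized to a 6.5 mM cAMP control.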
IL-2 act: activators of IL-2. activation, % (series mostly up to about 46 µM). IL-2 activation reporter assay, cell-based qHTS; stimulated with anti-CD3/CD4/CD28 beads; in transgenic mouse T cells. actives 0.065% (n = 360,000). AID 652025; in the data active means activation above about 50%; inconclusive means mostly about 30% to 49%; further: 0% is about no effect
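Unstimulated transgenic mouse T cells, 750 per well, received compound and, after 60 minutes, anti-CD3/anti-CD4 bead plus anti-CD28 stimulation. EGFP and DsRed were quantified after 18 hours.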
Abeta rescue: A-beta toxicity reversal in yeast; yeast expressing A-beta42, growth rescue, OD600, 48 h; response scale: 0% DMSO, 100% iron-clioquinol control; actives 0.063% (n = 410,000); Potency, µM (top dose mostly 46.1 µM), without a hit: at the highest dose growth rescue, most hits filed as activators; further: potency means the concentration at half of the fitted maximal effect; nearly all actives have a fitted effect of over 55% in size
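Yeast growth medium received pinned compounds, then yeast cells expressing toxic A-beta were added; plates incubated at 30 C for 48 hr. Growth read as absorbance at 600 nm, normalized to DMSO and equimolar FeCl3 plus clioquinol controls.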
PI5P4K alpha inh: PI5P4K alpha (human) kinase inhibition | PI5P4Kalpha enzyme, ADP-Glo luminescence, 60 min; stronger effect = lower value | max response, % | actives 1.2% (n = 330,000); active means max response of -50% or lower; inconclusive means between -30% and -50%; inactive means -30% or higher; further: value at the top dose of about 77 µM; on the % scale 0 is the no-effect control and ±100 the full control effect
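Quantitative HTS of the MLSMR library against PI5P4Kalpha with substrate. ATP added last at 5 microM final; room temperature, 60 minutes. Remaining ATP depleted, ADP converted and read as luminescence.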
EPAC1 antag: blocks human EPAC1 exchange factor; O95398; EPAC1 GEF assay, Rap1b-BODIPY-GDP exchange fluorescence; Potency, µM (doses to about 115 µM), without a hit: at the top dose activity change, negative = inhibition, most hits filed as inhibitors; actives 0.14% (n = 360,000);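 further: potency means the concentration at half of the fitted maximal effect; plate controls were vehicle for no effect and positive control for full effect; nearly all actives have a fitted effect of over 50% in size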
PLK1 PBD block: inhibitors of human PLK1 polo-box domain binding | P53350 | Plk1 PBD binding of FITC phosphopeptide, fluorescence polarization | Potency, µM, inactives show max response, negative = inhibition, usual class: inhibitors | actives 2.8% (n = 360,000); further: potency means the concentration at half of the fitted maximal effect; series mostly up to about 57 µM; on the % scale 0 is the no-effect control and ±100 the full control effect; nearly all actives have a fitted effect of over 65% in size
Target sequence (P53350 whole entry, looked up, the tested form may be a part): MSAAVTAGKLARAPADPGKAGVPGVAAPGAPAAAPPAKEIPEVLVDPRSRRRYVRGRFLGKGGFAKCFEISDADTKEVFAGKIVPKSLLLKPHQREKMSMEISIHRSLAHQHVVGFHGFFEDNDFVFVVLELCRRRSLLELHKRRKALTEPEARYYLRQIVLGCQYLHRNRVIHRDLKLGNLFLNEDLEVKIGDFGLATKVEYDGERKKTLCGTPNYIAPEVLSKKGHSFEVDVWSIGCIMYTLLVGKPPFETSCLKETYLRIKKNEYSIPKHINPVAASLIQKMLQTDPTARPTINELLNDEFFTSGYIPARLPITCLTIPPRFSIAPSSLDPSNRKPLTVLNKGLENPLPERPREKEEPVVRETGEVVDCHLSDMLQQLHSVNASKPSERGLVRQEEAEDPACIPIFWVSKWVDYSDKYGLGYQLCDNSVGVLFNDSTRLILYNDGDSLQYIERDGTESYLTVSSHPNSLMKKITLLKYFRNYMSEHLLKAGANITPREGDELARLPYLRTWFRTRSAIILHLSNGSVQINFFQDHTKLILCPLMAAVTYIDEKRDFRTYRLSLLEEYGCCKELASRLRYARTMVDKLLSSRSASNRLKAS
FUS suppressor: rescues growth of FUS-expressing yeast; Potency, µM (doses to about 76.6 µM), for inactives: top-dose growth rescue (activation), usual class: activators; S. cerevisiae FUS-expressing, growth rescue, OD600, 24 h; actives 0.24% (n = 390,000);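 further: potency means the concentration at half of the fitted maximal effect; plate controls were DMSO vehicle for no effect and reference control for full effect; nearly all actives have a fitted effect of over 55% in size; some results filed as inactive show a strong effect at the top dose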
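Quantitative HTS measuring growth restoration of FUS-toxic yeast. Galactose-induced cells (OD 0.005) were exposed 24hr at 30C to compounds at several concentrations, then absorbance at 600 nm was recorded.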
Active calls of the source: *; ? = inconclusive; · = not tested or not shown. Unless noted, the call rests on the fitted dose curve; in most records, active means well fitted curve in the direction sought with a large enough effect; inconclusive means small, poorly fitted or top-dose-only effect, or another doubt; inactive means no such curve, though single readings can be large; an effect the other way counts as inactive or inconclusive.

Screens in order: EPAC1 agonist | IL-2 act | Abeta rescue | PI5P4K alpha inh | EPAC1 antag | PLK1 PBD block | FUS suppressor
CC(=O)NC1C(=O)N=C(SCC(=O)Nc2sc3c(c2C#N)CCCCCC3)NC1=O (stereo unspecified)
    -1% | 2.2 | -2% | -15 | -10% | -19% | 14%
COc1ccc(Nc2nc3ccc(C)cn3c(=O)c2/C=N/O)cc1
    -6% | -0.7 | -7% | 1 | 2% | 0% | 17%
C=CCNC(=O)NC(=O)CSc1nnc(C(F)(F)F)n1C
    14% | 10 | 11% | 0 | -2% | -4% | -34%
CC1OC(OC2C(CO)OC(OC3C(CO)OC(O)C(O)C3O)C(O)C2O)C(O)C(O)C1N[C@@H]1C=C(CO)[C@@H](O)C(O)[C@H]1O (stereo partly specified)
    -18% | -0.2 | -14% | 1 | -3% | 2% | -44%
CCc1cc2c(N[C@@H](Cc3ccccc3)C(=O)O)ncnc2s1
    7% | -4.8 | 7% | -5 | -4% | -3% | 11%
COc1ccc(CCNc2cn[nH]c(=O)c2Cl)cc1OC
    6% | -1.3 | -1% | -1 | 1% | 8% | -20%
O=C(CSc1nc(C2CC2)n(-c2ccccc2)n1)NCc1ccco1
    11% | -0.8 | 3% | -1 | -2% | -3% | -4%
COc1cccc(/C=C/C(=O)OCC(=O)Nc2ccc(S(=O)(=O)N3CCCC3)cc2)c1
    11% | 0.3 | -7% | -6 | -17% | -11% | 15%
O=C(Cc1ccc(Cl)cc1)NNC(=O)c1ccco1
    1% | -3.9 | 2% | -8 | -15% | -16% | -5%
C[C@H](NC(=O)c1nc[nH]c1C(=O)N[C@@H](C)c1ccccc1)C(=O)OC(C)(C)C
    -14% | 2.3 | 6% | 4 | -29% | -3% | 29%
Cc1nc2n[nH]c(N)c2c2c1CCCC2
    2% | -0.4 | 3% | 0 | ? | -10% | -6%
Cc1ccc(-n2c(N)cc(=O)nc2SCC(=O)NC2CCCCC2)cc1C
    3% | 4.0 | 1% | -6 | -19% | -3% | ·
CC(C)Cc1nc2n[nH]c(N)c2c2c1CCCC2
    -2% | 4.0 | -1% | 8 | 16% | -1% | 21%
CCCc1ccc(S(=O)(=O)NCC2CCCN2CC)cc1 (stereo unspecified)
    1% | -1.3 | 5% | 1 | -9% | -9% | 17%
COc1ccc(NC(=O)CSc2nc3nc(-c4cccs4)cc(C(F)(F)F)c3c(=O)[nH]2)c(OC)c1
    9% | -0.3 | -13% | -53* | 32µM* | 27µM* | 19%

At a glance, some entries already given:
Screens in order: EPAC1 agonist | IL-2 act | Abeta rescue | PI5P4K alpha inh | EPAC1 antag | PLK1 PBD block | FUS suppressor
CC(=O)NC1C(=O)N=C(SCC(=O)Nc2sc3c(c2C#N)CCCCCC3)NC1=O (stereo unspecified)
    -1% | 2.2 | -2% | -15 | -10% | -19% | 14%
COc1ccc(Nc2nc3ccc(C)cn3c(=O)c2/C=N/O)cc1
    -6% | -0.7 | -7% | 1 | 2% | 0% | 17%
C=CCNC(=O)NC(=O)CSc1nnc(C(F)(F)F)n1C
    14% | 10 | 11% | 0 | -2% | -4% | -34%
CC1OC(OC2C(CO)OC(OC3C(CO)OC(O)C(O)C3O)C(O)C2O)C(O)C(O)C1N[C@@H]1C=C(CO)[C@@H](O)C(O)[C@H]1O (stereo partly specified)
    -18% | -0.2 | -14% | 1 | -3% | 2% | -44%
CCc1cc2c(N[C@@H](Cc3ccccc3)C(=O)O)ncnc2s1
    7% | -4.8 | 7% | -5 | -4% | -3% | 11%
COc1ccc(CCNc2cn[nH]c(=O)c2Cl)cc1OC
    6% | -1.3 | -1% | -1 | 1% | 8% | -20%
O=C(CSc1nc(C2CC2)n(-c2ccccc2)n1)NCc1ccco1
    11% | -0.8 | 3% | -1 | -2% | -3% | -4%
COc1cccc(/C=C/C(=O)OCC(=O)Nc2ccc(S(=O)(=O)N3CCCC3)cc2)c1
    11% | 0.3 | -7% | -6 | -17% | -11% | 15%
O=C(Cc1ccc(Cl)cc1)NNC(=O)c1ccco1
    1% | -3.9 | 2% | -8 | -15% | -16% | -5%
C[C@H](NC(=O)c1nc[nH]c1C(=O)N[C@@H](C)c1ccccc1)C(=O)OC(C)(C)C
    -14% | 2.3 | 6% | 4 | -29% | -3% | 29%
Cc1nc2n[nH]c(N)c2c2c1CCCC2
    2% | -0.4 | 3% | 0 | ? | -10% | -6%
Cc1ccc(-n2c(N)cc(=O)nc2SCC(=O)NC2CCCCC2)cc1C
    3% | 4.0 | 1% | -6 | -19% | -3% | ·
CC(C)Cc1nc2n[nH]c(N)c2c2c1CCCC2
    -2% | 4.0 | -1% | 8 | 16% | -1% | 21%

(continued)
Screens in order: EPAC1 agonist | IL-2 act | Abeta rescue | PI5P4K alpha inh | EPAC1 antag | PLK1 PBD block | FUS suppressor
COc1ccc(Cn2c(C)cc3c(c2=O)C(c2cccs2)C(C#N)=C(N)O3)cc1OC (stereo unspecified)
    -6% | -0.7 | 3% | · | 2% | -4% | 7%
COc1ccc(-c2nnc(-c3ccc(C)cc3)o2)cc1
    19% | -0.6 | -4% | 1 | 0% | -15% | -2%
Fc1ccc(-c2cc3nc(-c4ccccc4)cc(N4CCOCC4)n3n2)cc1
    8% | -1.8 | -4% | · | 0% | -3% | 29%
O=C(CN(Cc1ccc(F)cc1)C(=O)c1ccco1)NCc1ccc(F)cc1
    2% | 1.3 | 2% | -1 | -21% | -14% | 18%
NC(=O)C1CCN(C(=O)COc2ccc3ccccc3c2)CC1
    0% | -0.1 | 9% | 1 | -14% | -2% | 2%
COC(=O)c1ccccc1NC(=O)CSc1nc(N)cc(=O)[nH]1
    1% | 0.9 | -22% | ? | 2% | 4% | ?
CC(C)CCN1CCN(C/C=C/c2ccco2)CC1CCO (stereo unspecified)
    4% | -2.8 | -4% | -1 | -1% | -15% | 13%
Cc1[nH]n2c(=O)c3c(nc2c1-c1ccc(F)cc1)CCCC3
    -3% | -0.2 | 10% | 2 | -10% | -19% | 19%
Cc1cccc(C(=O)Nc2sc3c(c2C#N)CCCCC3)c1
    1% | 0.8 | 14% | 3 | 0% | -3% | 9%
Cc1ccc(CNC(=O)C2(S(=O)(=O)c3ccccc3)CC=CC2)cc1
    -18% | 0.2 | -15% | 6 | 0% | -2% | 15%
CC(=O)Nc1ccc(NC(=O)CSc2nc3nc(-c4cccs4)cc(C(F)(F)F)c3c(=O)[nH]2)cc1
    2% | 0.0 | 19% | -15 | 6% | ? | 21%
Cc1[nH]c2ccccc2c1C(=O)C(=O)N1CCN(C)CC1
    8% | 1.3 | -18% | 3 | 9% | -2% | 10%
COc1ccc(NC(=O)Nc2c(C)n(C)n(-c3ccccc3)c2=O)c(OC)c1
    -11% | 0.0 | 4% | -6 | -1% | -12% | 7%
CC(=O)Oc1ccc(C(=O)Nc2ccc(C3(C#N)CCCC3)cc2)cc1
    3% | 0.0 | -19% | 1 | -3% | -2% | 6%
CN(CC(=O)Nc1cc(Cl)ccc1C#N)C1CCS(=O)(=O)C1 (stereo unspecified)
    9% | 0.6 | 0% | -5 | -19% | 3% | -13%
O=C(NCc1cccs1)C1(S(=O)(=O)c2ccccc2)CC=CC1
    -4% | 0.9 | 7% | 5 | -2% | -7% | -24%
O=C(O)c1c2c(nc3ccccc13)/C(=C/c1c(F)cccc1F)CCC2
    1% | -1.5 | 1% | 4 | -13% | -15% | 19%
c1ccc(-c2nc(CSc3n[nH]c(-c4cccs4)n3)cs2)cc1
    25% | -2.7 | -15% | · | -23% | -29% | 34%

Screens as filed in PubChem BioAssay.

An excerpt (hit frequency here may not be typical).
